eIF4H FP inh: inhibitors of RNA binding by human eIF4H | inhibition, % at 35 µM | Q15056 | eIF4H fluorescence polarization binding assay | 290,000 tested, 0.94% active;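 active = 50% or more with normal probe brightness, or confirmed in later tests; inconclusive = above 50% with abnormal brightness, or retests that disagree; inactive = below 50% or failed in later tests; about a fifth of its hits are not listed in these tables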;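 also: calls also rest on retests at 20 µM and on dose response follow-up; 0% = protein and probe with vehicle and 100% = probe without protein; strong numbers were not always called active; many hits fall short of the cut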
HIV Env fusion: blocks HIV Env-driven cell-cell fusion | HeLa-JRFL Env/CEM21 cell fusion, luciferase | inhibition, % at 12.3 µM | 360,000 tested, 1.1% active | AID 651610;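 active = mean replicate inhibition score of at least 50 and every replicate individually at or above 50; inconclusive = only one of the two criteria met; inactive = mean below 50 and not all replicates reaching 50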;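 also: 0% = plate neutral controls and 100% = maraviroc near 300 nM; one replicate is shown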
CSC inhib: blocks cancer stem cells; cancer stem cell-like cells viability, luminescence; inhibition, % at 7.5 µM; 300,000 tested, 1.1% active;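 active = mean at 75% or more and at least half the replicates too; inconclusive = mean and replicates disagree; tested in HMLE shEcad cells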;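 also: 0% = median of negative and 100% = median of positive control wells; the first replicate is given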
MT1-MMP act inh: inhibitors of human MT1-MMP activation. HT1080 RFP-PRO-GFP cells, GFP/RFP ratio fluorescence, overnight; percent of plate control window, DMSO zero. GFP/RFP ratio change, % at 20 µM. 360,000 tested, 0.061% active. AID 651647;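 active = GFP/RFP ratio change of at least 30% with cell ATP level not reduced by more than half and red fluorescence within 50% of control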; also: strong numbers were not always called active
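Test system: HT1080 RFP-PRO-GFP cells; Benchmarks: DMSO and RFP-L50D-GFP cell wells; Timing: cells overnight before dosing, compound overnight, 37 °C, 5% CO2; Compound: one 20 µM compound dose with 1% DMSO; Read-out: GFP/RFP fluorescence ratio.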
PABP FP inh: blocks human PABP binding to poly(A) RNA; fluorescence polarization; P11940; inhibition, % at 35 µM; 290,000 tested, 1% active;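 active = 50% or more with normal probe brightness, or confirmed in later tests; inconclusive = above 50% with abnormal brightness, or retests that disagree; inactive = below 50% or failed in later tests; about a fifth of its hits are not listed in these tables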;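 also: calls also rest on retests at 20 µM and on dose response follow-up; controls were probe without protein and protein plus probe with vehicle; some compounds called inactive have numbers as strong as hits; many hits fall short of the cut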
Yeast UUG start: yeast start codon fidelity modulation | S. cerevisiae UUG-firefly luciferase reporter, luminescence/redox ratio | activity score, % at 18.7 µM | 350,000 tested, 0.13% active;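 active = replicate mean at a twofold rise or more, about +100% in these data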;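 also: firefly luciferase made from a UUG start codon reports start codon fidelity; reporter light over untreated wells divided by growth signal over untreated wells; some hits fall short of that in this replicate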
Rce1 inhib: yeast Ras-converting enzyme inhibition. yeast membranes, quenched prenylated peptide cleavage fluorescence. 290,000 tested, 0.27% active. Q03530. calls only;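 active = fall in fluorescence gain of 50% or more versus controls, with final raw signal at or below 3038400; inconclusive = same 50% fall but final raw signal above 3038400; inactive = fall in fluorescence gain under 50%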;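 also: plate controls were neutral control wells for no effect and wells lacking membranes for full effect; tested at 10 µM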
Target sequence (Q03530 whole entry, looked up): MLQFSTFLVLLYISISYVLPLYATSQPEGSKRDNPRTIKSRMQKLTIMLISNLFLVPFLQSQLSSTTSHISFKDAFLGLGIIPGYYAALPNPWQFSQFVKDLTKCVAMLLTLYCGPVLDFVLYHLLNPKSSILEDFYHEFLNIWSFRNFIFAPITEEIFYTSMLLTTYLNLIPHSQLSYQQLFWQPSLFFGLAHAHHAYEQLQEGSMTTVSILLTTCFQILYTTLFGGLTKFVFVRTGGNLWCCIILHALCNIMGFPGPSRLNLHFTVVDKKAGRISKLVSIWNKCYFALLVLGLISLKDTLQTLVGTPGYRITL
MT1-MMP act inh RFP: second read-out of MT1-MMP act inh, no call of its own (marks repeat the call); RFP signal change, %; measured here: RFP expression control read;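 0 = vehicle wells; hits needed this value within 50% of zero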
An asterisk follows results filed as active; i = inactive; ? = inconclusive; / = no result given. Hits appear at their usual frequency; 3% or so of the library scored in one or more.

SMILES	eIF4H FP inh	HIV Env fusion	CSC inhib	MT1-MMP act inh	MT1-MMP act inh RFP	PABP FP inh	Yeast UUG start	Rce1 inhib
Cc1ccc(NC(=O)CC2Oc3ccc(C)cc3NC2=O)cc1 (stereo unspecified)	3	12	/	5	0	-5	-14	/
c1ccc(-c2noc(CN3CCN(C(c4ccccc4)c4ccccc4)CC3)n2)cc1	-1	/	-4	-6	-3	1	-7	i
O=C(c1ccc2c(c1)N(Cc1ccc(F)cc1)C(=O)CS2)N1CCOCC1	-5	-15	-6	2	4	-10	6	i
CCN(CC(=O)Nc1c(F)cccc1F)C(=O)Cc1ccccc1	6	-7	-5	0	4	6	-12	i
Cc1c(Cc2ccccc2)sc(/N=C/c2ccc3ccccc3c2)c1C(N)=O	-7	/	49	-8	-2	-2	/	/
O=C(CCCN1C(=O)C(c2ccccc2)Oc2cccnc21)NCc1ccccc1F (stereo unspecified)	/	15	0	-1	0	/	-6	i
O=C(c1cccc(Cl)c1)C1CCCN(C(=O)c2ccoc2)C1 (stereo unspecified)	-4	8	8	1	2	2	/	/
CCC(=O)NCC(c1cccs1)S(=O)(=O)c1ccc(C)cc1 (stereo unspecified)	-1	5	-13	3	3	5	-14	i
C(=Cc1c[nH]c2ccccc12)c1ccc2ccccc2n1	/	-430	/	-98	4	/	-66	/
CN(CC(=O)Nc1ccc(Cl)c(C(F)(F)F)c1)C(=O)Cn1cc([N+](=O)[O-])ccc1=O	/	/	-10	2	0	/	-10	/
CCOC(=O)NCCc1ccc(OC)cc1	-6	/	/	4	4	11	-11	i
Cc1c(NS(=O)(=O)c2ccc(Cl)c(C(=O)OC(C)C(=O)N3CCOCC3)c2)c(=O)n(-c2ccccc2)n1C (stereo unspecified)	0	6	-1	-1	-1	?	-27	i
CCOC(=O)c1oc2ccccc2c1NC(=O)Cc1cccs1	-5	9	-1	-4	-1	1	-6	i
CSCC[C@H](NC(=O)Nc1ccc(S(N)(=O)=O)cc1)C(=O)O	-13	14	-8	-2	0	3	/	i
CCOc1ccc(S(=O)(=O)Nc2ccc(C(=O)NCCCN3CCCC3=O)cc2)cc1	/	-3	3	-7	1	/	/	i
COc1ccc(C(=O)NC2CCCc3ccccc32)cc1 (stereo unspecified)	-2	4	/	-3	-2	10	/	i
Oc1c(C(c2ccccc2)N2CCOCC2)ccc2ccccc12 (stereo unspecified)	/	72*	/	-8	2	/	-19	/
CCC1CCCCN1C(=O)CSc1nc2ccsc2c(=O)n1Cc1ccccc1 (stereo unspecified)	-4	37	49	-2	-10	4	3	i
OCCNc1nc2ccccc2[nH]1	3	-42	1	4	6	-6	-1	i
O=C(NC1CCc2ccccc21)c1cc(COc2ccc(F)cc2Cl)on1 (stereo unspecified)	-3	3	-7	0	0	0	-13	i
O=C(NC1CCCC1)C(c1ccsc1)N(C(=O)Cc1cccs1)c1ccc(F)cc1 (stereo unspecified)	-3	/	-17	-4	-2	-14	-13	i
NNc1nc2ccccc2c(=O)n1Cc1ccccc1	-8	-5	7	0	-3	0	-15	i
CCOc1cc2c(Cl)ncnc2c(OCC)c1OCC	-6	8	21	1	2	19	0	i
CN(CCC1CCOCC1)C(=O)C1CCC(=O)N(CCc2cccc(F)c2)C1 (stereo unspecified)	5	-3	-7	-1	2	-3	22	i

HIV Env fusion, what is marked active above.
Molecule	HIV Env fusion	MT1-MMP act inh	MT1-MMP act inh RFP	Yeast UUG start	Rce1 inhib
Oc1c(C(c2ccccc2)N2CCOCC2)ccc2ccccc12 (stereo unspecified)	72*	-8	2	-19	/

Other records
SMILES	eIF4H FP inh	HIV Env fusion	CSC inhib	MT1-MMP act inh	MT1-MMP act inh RFP	PABP FP inh	Yeast UUG start	Rce1 inhib
O=C(NNC(=O)c1ccc(Br)cc1)c1ccncc1	9	11	-4	-1	-1	6	-22	i
COC(=O)c1cc2sccc2n1Cc1nc(-c2cccc(Cl)c2)oc1C	-11	27	-4	4	3	2	-10	i
Cc1ccc(S(=O)(=O)N(C)Cc2ccc(C(=O)N/N=C/c3ccc(OC(F)F)cc3)cc2)cc1	1	/	12	9	4	18	-15	i
O=C(c1cn[nH]c1)N1CCc2c([nH]c3ccccc23)C1c1c(F)cccc1Cl (stereo unspecified)	-11	-33	0	-3	-1	-4	/	i
CCOC(=O)c1[nH]c(CN2CCN(c3ccc(OC)cc3)CC2)c(C(=O)OCC)c1C	-10	29	2	-4	-6	-6	5	i
CCOC(=O)C1C(=O)Oc2ccc3ccccc3c2C1C1CCOC1=O (stereo unspecified)	-2	-21	-14	2	1	-2	2	i
C=C(C)C1CC=C(C)/C(=N/NC(=O)CCC(=O)Nc2ccccc2Cl)C1 (stereo unspecified)	-3	1	6	3	-4	-2	-5	i
CCOC(=O)CC(=O)Nc1ccn[nH]1	7	-10	-8	-1	1	10	/	i
COc1ccc(/C(C)=N/OCC(=O)Nc2nc3ccccc3s2)cc1	9	/	7	1	4	-10	-7	i
O=C(NCc1cccnc1)C1CCN(S(=O)(=O)N2CCOCC2)CC1	-11	-8	-4	1	3	-10	-13	i
CC(C)N(Cc1nc2ccccc2[nH]1)C(C)C	-1	-14	-8	-3	0	9	-9	i
c1ccc2c(c1)OCC(c1csc3ncnc(N4CCOCC4)c13)O2 (stereo unspecified)	-2	70*	-12	-7	-13	-11	/	i
CC(Sc1ccc(Cl)cc1)C(=O)NNC(=O)c1ccccc1O (stereo unspecified)	-4	-20	45	4	3	-6	-16	i
CN1CCC(N(C)C(=O)c2ccc(Cl)c(S(=O)(=O)Nc3cc(Cl)ccc3Cl)c2)CC1	/	6	-11	-3	3	/	6	/
Nc1c(N2CCOCC2)cc(Cl)c2nonc12	5	-22	-1	-5	-1	10	-24	i
COc1ccc2nc(NC(=O)C3CCN(S(=O)(=O)c4cccs4)CC3)sc2c1	1	/	23	-17	-24	3	8	i
O=[N+]([O-])c1ccc(N2CCN(c3ccccc3O)CC2)c(Cl)c1	10	-70	27	/	/	-3	/	i
CC12CCC(C(=O)Nc3ccccc3-n3cccc3)(CC1=O)C2(C)C (stereo unspecified)	-1	31	1	0	0	8	/	i
Cc1ccc(S(=O)(=O)Nc2ccc(NC(=O)c3c(F)c(F)c(F)c(F)c3F)cc2)cc1	13	6	24	-7	-18	7	/	i
CCN1C[C@@H]2[C@@H]3C(=O)N(Cc4ccccc4)C(=O)[C@@H]3[C@](CC)(C(=O)OC)N2C1=NCc1ccccc1	/	-8	/	3	5	/	-13	/
CCC(C)Cn1c(C)nc2ccccc21 (stereo unspecified)	8	/	/	-12	-7	-4	-21	i
Cc1nc2ccccc2c(=O)n1CCCO	1	-86	1	0	2	12	23	i
O=C(Nc1ccc(-c2csc(-c3ccccc3)n2)cc1)c1ccccc1Cl	-16	/	/	1	-12	-3	-18	/
Cc1cc(C)cc(NC(=O)C2CCCN(S(=O)(=O)c3cnc[nH]3)C2)c1 (stereo unspecified)	2	-8	-5	-5	0	4	1	i

Full records, quoted from the list.
`COc1ccc2nc(NC(=O)C3CCN(S(=O)(=O)c4cccs4)CC3)sc2c1` as listed: eIF4H FP inh: 1; HIV Env fusion: /; CSC inhib: 23; MT1-MMP act inh: -17; MT1-MMP act inh RFP: -24; PABP FP inh: 3; Yeast UUG start: 8; Rce1 inhib: i
`Cc1ccc(S(=O)(=O)Nc2ccc(NC(=O)c3c(F)c(F)c(F)c(F)c3F)cc2)cc1` as listed: eIF4H FP inh: 13; HIV Env fusion: 6; CSC inhib: 24; MT1-MMP act inh: -7; MT1-MMP act inh RFP: -18; PABP FP inh: 7; Yeast UUG start: /; Rce1 inhib: i

Continued.
SMILES	eIF4H FP inh	HIV Env fusion	CSC inhib	MT1-MMP act inh	MT1-MMP act inh RFP	PABP FP inh	Yeast UUG start	Rce1 inhib
CCOC(=O)N1CCC(NC(=O)CS(=O)(=O)Cc2nc(-c3ccccc3C)oc2C)CC1	-14	11	3	0	-4	-2	-4	i
CC(Oc1ccccc1)c1ccn[nH]1 (stereo unspecified)	-1	2	-4	-1	2	-4	-20	i
CC(C)(C)NC(=O)Cn1c(SCC(N)=O)nc2ccccc21	-12	-26	-4	-1	1	7	-15	i
OCCN1CCN(c2cc(-c3ccccc3)c3ccccc3n2)CC1	12	28	23	-2	-3	-8	/	i
Cc1cccc(N(CC(=O)NCCc2ccccc2)C(=O)c2csnn2)c1	10	10	-1	0	1	11	-9	i
O=C(O)c1ccccc1-c1nc2ccccc2c(=O)[nH]1	39	-17	6	-1	4	3	-17	i
CCCCCCCCC(=O)NNC(=O)c1c(O)c2ccccc2n(CC)c1=O	22	6	/	3	-1	-4	/	i
COc1ccc(CC(=O)Nc2cccc(Cl)c2C)cc1S(=O)(=O)N1CCOCC1	/	/	-6	-2	-6	/	4	/
Cc1cc(Cl)c(S(=O)(=O)N2CCN(c3ccccn3)CC2)cc1OCC(=O)NC1CCCCC1	-3	-1	8	-8	-26	-4	/	i
COc1ccc(OC)c(Nc2ncnc3ccccc23)c1	-3	-56	-20	-35	-7	17	-7	i
CCOC(=O)C1C(=O)OC(C)(C)C1C(C)C(=O)c1ccccc1 (stereo unspecified)	6	-36	-5	-2	-4	5	-9	i
Cn1nnnc1SCCNC/C=C/c1ccccc1	3	-23	-19	2	-5	-5	-10	i
COc1ccc(OCC(O)CNC(=O)Nc2cc(C)cc(C)c2)cc1 (stereo unspecified)	-8	2	-10	2	2	-13	/	i
O=S(=O)(Nc1cccnc1)c1ccc2c(c1)OCCO2	-2	/	-8	-1	1	8	/	i
CCOC(=O)c1[nH]c(=O)[nH]c1CSc1ccccn1	23	-14	-2	2	1	12	-15	i
Cc1ccc(CSc2sc(C(=O)c3ccccc3)c(N)c2C#N)cc1	-9	/	2	-4	-1	32	-2	i
CCc1cccc(NC(=O)Cn2ncn3c(cc4ccccc43)c2=O)c1	-12	/	-4	-2	4	-17	-15	i
COc1ccc(-c2nnc(SCC(=O)c3cccs3)o2)cc1	-11	/	6	0	2	6	-18	i
COc1ccc([N+](=O)[O-])cc1/C=N/Nc1nc(N2CCCCC2)nc(N2CCCCC2)n1	-2	22	4	6	-8	5	/	i
N#Cc1cccc(C(=O)N(CCc2ccccc2)Cc2cccs2)c1	3	5	-6	-2	-6	3	-15	/
CC(C)n1nc(C(=O)Nc2ccc3c(c2)OCO3)c2ccccc2c1=O	/	-8	1	0	4	/	-5	/
COc1ccc(NS(=O)(=O)c2cccc(C(=O)N3CCN(Cc4cc(OC)ccc4OC)CC3)c2)cc1	-9	/	1	4	-8	-10	-11	i

3 of the compounds above, with each value named:
smiles: CCOC(=O)c1[nH]c(=O)[nH]c1CSc1ccccn1
  eIF4H FP inh: 23
  HIV Env fusion: -14
  CSC inhib: -2
  MT1-MMP act inh: 2
  MT1-MMP act inh RFP: 1
  PABP FP inh: 12
  Yeast UUG start: -15
  Rce1 inhib: i

smiles: N#Cc1cccc(C(=O)N(CCc2ccccc2)Cc2cccs2)c1
  eIF4H FP inh: 3
  HIV Env fusion: 5
  CSC inhib: -6
  MT1-MMP act inh: -2
  MT1-MMP act inh RFP: -6
  PABP FP inh: 3
  Yeast UUG start: -15
  Rce1 inhib: /

smiles: CCc1cccc(NC(=O)Cn2ncn3c(cc4ccccc43)c2=O)c1
  eIF4H FP inh: -12
  HIV Env fusion: /
  CSC inhib: -4
  MT1-MMP act inh: -2
  MT1-MMP act inh RFP: 4
  PABP FP inh: -17
  Yeast UUG start: -15
  Rce1 inhib: i

A few values from above:
O=S(=O)(Nc1cccnc1)c1ccc2c(c1)OCCO2 in eIF4H FP inh: -2
COc1ccc(OCC(O)CNC(=O)Nc2cc(C)cc(C)c2)cc1 (stereo unspecified) in MT1-MMP act inh: 2
